High-throughput results as filed in PubChem BioAssay.
LT uptake inh – inhibitors of anthrax lethal toxin internalization; AID 912; Cells, anthrax lethal toxin internalization, FRET ratio (460/530); 70,000 tested, 0.67% active; Potency, µM (top dose mostly 40 µM), for the others: at the highest dose activity change, negative = inhibition, actives largely listed as inhibitors; active = well fitted falling ratio curve with the 530 nm signal flat; inconclusive = other ratio curves, or a change in one channel alone; inactive = flat curves in the ratio and both channels; the % refers to the ratio; also: % is scaled to controls: 0 for no effect and ±100 for the full control effect; nearly all actives have a fitted effect of over 50% in size; tested in ME-180 cells; beta-lactamase reporter
Prx2 Sm inh – inhibitors of Schistosoma mansoni peroxiredoxin 2; Potency, µM; AID 448; S. mansoni Prx2 activity coupled to TGR/GSH (TGR is thioredoxin glutathione reductase), NADPH fluorescence loss, qHTS; some inactives read as strong as hits; 65,000 tested, 0.07% active; active means full or partial inhibition curve with a strong effect at the top dose; inconclusive means weaker partial or single-point curve; inactive means no accepted curve; also: series up to 57 µM; many of its hits are not listed in these tables
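Prx2 activity was followed as the loss of NADPH fluorescence (ex 365/em 450 nm), read every 30 sec for 8 min after H2O2 start. The enzyme mix (50 nM Prx2, 25 nM TGR, GSH, NADPH; pH 7.4 phosphate buffer) was incubated with compound for 15 min at room temperature first.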
Active calls of the source: *; i = inactive; ? = inconclusive; . = no result given. Potency is read from the fitted curve at half-maximal effect. A portion of the library (hit frequency here may not be typical).

canonical_smiles | LT uptake inh | Prx2 Sm inh
O=C(NCc1ccccn1)c1ccc(Cn2cc(Br)cn2)o1 | 2% | >57
COc1ccc(NC(=O)CSc2nnc(Cc3cccn3C)n2CCc2ccccc2)c(OC)c1 | -14% | >57
Cc1nn(-c2ccccc2)c(C)c1C(=O)OCC(=O)N1CCN(S(=O)(=O)c2ccccc2)CC1 | -12% | >57
CCCC(=O)Nc1nnc(Cc2ccccc2)s1 | -1% | .
CCC(C)(C)n1nnnc1C(c1ccc(OC)c(OC)c1)N1CCN(c2cccc(OC)c2)CC1 (centres undefined) | -13% | >57
Cc1ccc(-n2nc(-c3ccco3)cc2C(=O)NCc2cccnc2)cc1 | ? | >57
N#Cc1cnc2sc3ccccc3n2c1=N | -17% | .
CN1C(=O)C2C=CC1C1C(=O)N(c3ccccc3)C(=O)C21 (centres undefined) | 0% | >57
CCOC(=O)c1[nH]c(CSc2nnc(-c3ccncc3)n2CCOC)c(C(=O)OCC)c1C | -8% | >57
COc1ccc2[nH]c(=O)c(-c3noc(-c4ccccc4)n3)cc2c1 | -19% | >57
Cc1ccc(C(=O)CSc2nnc(COc3cccc(C)c3)o2)cc1 | ? | >57
CCNc1cc(=O)n(C)c(=O)n1C | 19% | >57
COC(=O)c1ccccc1NC(=O)COC(=O)c1ccc(C)c(NC(=O)c2ccco2)c1 | -2% | >57
N#Cc1nc(Cc2ccccc2)oc1N1CCC(C(N)=O)CC1 | -6% | >57
CC1(C)CC2CC(C)(CN2C(=O)COC(=O)Cn2[nH]c(=O)c3ccccc3c2=O)C1 (centres undefined) | -9% | >57
CC(C)COc1cc(=O)[nH]c(SCC(C)C)n1 | -1% | i
O=C(Nc1ccc2nn(-c3ccccc3)nc2c1)c1ccc2c(c1)OCO2 | -4% | >57
CCN(CC)c1ncnc2sc(C(=O)N3CCN(c4ccc(OC)cc4)CC3)c(C)c12 | 9% | >57
O=C(Cc1ccccc1)N1CCN(CC2CC=CCC2)CC1 (centres undefined) | -21% | >57
CC1OC(NCCc2ccccc2)C(O)C(O)C1O (centres undefined) | -13% | >57
CC(=O)N1CCc2cc(S(=O)(=O)NCCC(=O)Nc3cccc(C)c3)ccc21 | -1% | >57
Cc1cccn2c(=O)c3cc(C(=O)NCCN4CCOCC4)c(=N)n(CCc4ccccc4)c3nc12 | ? | >57
COC(=O)c1nc2cc(C)ccn2c1F | ? | >57
CCOc1ccccc1NC(=O)Cn1cnc2c(nnn2-c2cccc(OC)c2)c1=O | 20% | >57
CC(C)N(CCCNC(=O)C1CCN(S(=O)(=O)N2CCOCC2)CC1)Cc1ccccc1 | ? | >57
COc1ccc(CCNC(=O)CN2CCN(c3cccc(Cl)c3)CC2)cc1OC | ? | >57
CN(C)c1ccc(CN(C(=O)c2ccco2)C2CCS(=O)(=O)C2)cc1 (centres undefined) | -10% | >57
COc1ccc2c(c1OC)C(=O)OC2CC(=O)c1ccc2c(c1)OCO2 (centres undefined) | 8% | >57
O=C(NCc1ccccc1)NC1(C(=O)N2CCCC2)CCCCC1 | 13% | >57
CCC1S/C(=C(\C#N)C(=O)NCc2ccco2)N(c2ccc(F)cc2)C1=O (centres undefined) | ? | >57

25 of the compounds above, with values under each structure.
Order of values – LT uptake inh | Prx2 Sm inh
Cc1ccc(-n2nc(-c3ccco3)cc2C(=O)NCc2cccnc2)cc1
  ? | >57
N#Cc1cnc2sc3ccccc3n2c1=N
  -17% | .
CN1C(=O)C2C=CC1C1C(=O)N(c3ccccc3)C(=O)C21 (centres undefined)
  0% | >57
CCOC(=O)c1[nH]c(CSc2nnc(-c3ccncc3)n2CCOC)c(C(=O)OCC)c1C
  -8% | >57
COc1ccc2[nH]c(=O)c(-c3noc(-c4ccccc4)n3)cc2c1
  -19% | >57
Cc1ccc(C(=O)CSc2nnc(COc3cccc(C)c3)o2)cc1
  ? | >57
CCNc1cc(=O)n(C)c(=O)n1C
  19% | >57
COC(=O)c1ccccc1NC(=O)COC(=O)c1ccc(C)c(NC(=O)c2ccco2)c1
  -2% | >57
N#Cc1nc(Cc2ccccc2)oc1N1CCC(C(N)=O)CC1
  -6% | >57
CC1(C)CC2CC(C)(CN2C(=O)COC(=O)Cn2[nH]c(=O)c3ccccc3c2=O)C1 (centres undefined)
  -9% | >57
CC(C)COc1cc(=O)[nH]c(SCC(C)C)n1
  -1% | i
O=C(Nc1ccc2nn(-c3ccccc3)nc2c1)c1ccc2c(c1)OCO2
  -4% | >57
CCN(CC)c1ncnc2sc(C(=O)N3CCN(c4ccc(OC)cc4)CC3)c(C)c12
  9% | >57
O=C(Cc1ccccc1)N1CCN(CC2CC=CCC2)CC1 (centres undefined)
  -21% | >57
CC1OC(NCCc2ccccc2)C(O)C(O)C1O (centres undefined)
  -13% | >57
CC(=O)N1CCc2cc(S(=O)(=O)NCCC(=O)Nc3cccc(C)c3)ccc21
  -1% | >57
Cc1cccn2c(=O)c3cc(C(=O)NCCN4CCOCC4)c(=N)n(CCc4ccccc4)c3nc12
  ? | >57
COC(=O)c1nc2cc(C)ccn2c1F
  ? | >57
CCOc1ccccc1NC(=O)Cn1cnc2c(nnn2-c2cccc(OC)c2)c1=O
  20% | >57
CC(C)N(CCCNC(=O)C1CCN(S(=O)(=O)N2CCOCC2)CC1)Cc1ccccc1
  ? | >57
COc1ccc(CCNC(=O)CN2CCN(c3cccc(Cl)c3)CC2)cc1OC
  ? | >57
CN(C)c1ccc(CN(C(=O)c2ccco2)C2CCS(=O)(=O)C2)cc1 (centres undefined)
  -10% | >57
COc1ccc2c(c1OC)C(=O)OC2CC(=O)c1ccc2c(c1)OCO2 (centres undefined)
  8% | >57
O=C(NCc1ccccc1)NC1(C(=O)N2CCCC2)CCCCC1
  13% | >57
CCC1S/C(=C(\C#N)C(=O)NCc2ccco2)N(c2ccc(F)cc2)C1=O (centres undefined)
  ? | >57

Carrying on.
canonical_smiles | LT uptake inh | Prx2 Sm inh
CCOC(=O)c1cc2sc(C)cc2n1CC(=O)Nc1cccc(C)c1C | -10% | >57
CC(=O)NCCNc1ncnc2ccc(-c3ccccc3Cl)cc12 | 6% | >57
CCN1CCCC1CNCc1ccc(Cl)cc1Cl (centres undefined) | -3% | >57
O=C(CN1CCN(Cc2ccc(Cl)cc2)C1=O)NCCN1CCCC1 | -19% | >57
CCOC(=O)COc1ccc(N)cc1CC(NC(C)=O)(C(=O)OCC)C(=O)OCC | 0% | .
CC(C)Sc1nc2c(cnn2-c2ccc(F)cc2)c(=O)[nH]1 | -6% | >57
O=C(O)CCCC[C@@H]1SC[C@H]2NC(=O)N[C@H]12 | ? | >57
Cc1cc(C)cc(-n2nnc(C(=O)NCc3ccc(Cl)cc3)c2N)c1 | -15% | >57
COc1cc(NS(=O)(=O)c2ccc(NS(=O)(=O)c3ccccc3)cc2)nc(OC)n1 | -8% | >57
Clc1ccccc1Cn1nnc2c(Nc3ccccc3)ncnc21 | -17% | >57
COc1cc(NC(=O)c2ncn[nH]2)cc(OC)c1OC | -12% | >57
Cc1nnc(SCCn2c(N3CC(C)CC(C)C3)nc3c2c(=O)n(C)c(=O)n3C)s1 (centres undefined) | -5% | >57
COc1ccccc1-n1c(SCC(=O)O)nnc1-c1ccc(S(=O)(=O)N2CCCCC2)cc1 | 0% | >57
CC1CCN(C(=O)CN(C)S(=O)(=O)c2cccc3nsnc23)CC1 | 7% | >57
CC1(C)Cc2ccccc2C(/C(=N/O)C(N)=O)=N1 | -14% | >57
O=C1C(SC(F)(F)C(F)F)=C(C(F)(F)F)OC2C3C=CC(C3)C12 (centres undefined) | -9% | >57
Cn1cccc1C(=O)NC(=O)COC(=O)c1ccccc1Sc1ccccc1C#N | ? | >57
CCc1ccc2[nH]c(=O)c(C(c3nnnn3CCOC)N3CCN(c4ccc(F)cc4)CC3)cc2c1 (centres undefined) | -5% | >57
O=C(COc1ccccc1)Nc1ccc2c(c1)nc1n2CCSC1 | -20% | >57
Cc1ccccc1-n1nnnc1SCC(=O)Nc1ccc(S(=O)(=O)N2CCCC2)cc1 | -19% | >57
O=C(OC1CCN(CCCl)CC1)C(c1ccccc1)c1ccccc1 | ? | >57
COCCn1c(C)cc(C(=O)COC(=O)c2ccc(-n3nc(C)cc3C)cc2)c1C | -3% | >57
CCC1CCCCN1CCNS(=O)(=O)c1ccc2c(c1)CCN2C(C)=O (centres undefined) | 8% | >57
COC(=O)[C@@]1(Cc2ccc(OC)cc2)[C@H]2c3cc(C(=O)N(C)C)n(CCc4ccccn4)c3C[C@H]2CN1C(=O)c1ccccc1 | ? | >57
Cc1ccc(C2c3c(oc4ccc(Cl)cc4c3=O)C(=O)N2CCCN2CCOCC2)o1 (centres undefined) | 6% | >57
CN(C)c1nc(N2CCCCC2)nc(N2CCCCC2)n1 | -18% | >57
O=c1oc2ccccc2n1CCCOc1ccccc1 | -20% | >57
CCN(CC)CCCN1C(=O)C(O)=C(C(=O)c2ccco2)C1c1ccc(C)o1 (centres undefined) | -8% | >57
Cc1c(C(=O)N2CCOCC2)oc2ccc(S(=O)(=O)N3CCCC3)cc12 | 4% | >57
c1ccc2oc(-c3nn4c(Cn5cnc6ccccc65)nnc4s3)cc2c1 | -10% | >57
CCCC(NS(=O)(=O)c1ccc(OC)cc1)C(=O)O (centres undefined) | 6% | .
COc1ccccc1N1CCN(S(=O)(=O)Cc2ccccc2Cl)CC1 | ? | >57
CCOc1ccc(C(=O)c2ccc(OCC)c(N)c2)cc1N | 10µM* | .
S=C(c1ccc(-c2cccc(Cl)c2)o1)N1CCOCC1 | ? | >57
COc1cc(C)c(S(=O)(=O)NCc2cccs2)cc1C | -2% | >57
COc1cc(CNC(=O)c2ccc(Cn3nc(C)c(Cl)c3C)o2)cc(OC)c1 | -1% | >57
Cc1ccc2nc(C)cc(OCC(=O)O)c2c1 | 8% | >57

Single values from the list.
`N#Cc1nc(Cc2ccccc2)oc1N1CCC(C(N)=O)CC1` in LT uptake inh: -6%
`COc1ccc(CCNC(=O)CN2CCN(c3cccc(Cl)c3)CC2)cc1OC` in Prx2 Sm inh: >57
